Assay outcomes (PubChem BioAssay)
CBX7 AlphaScr: CBX7 inhibition, primary AlphaScreen; actives 1.1% (n = 66,000); O95931; normalised signal (fraction of DMSO) (concentration not given with the values); AID 1224903; AlphaScreen His6-CBX7 / biotin-H3K27me3 peptide binding; hits give low values; in the data active = normalised signal below about 0.5;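 also: 100 nL library stock added to about 20 µL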
Target sequence (O95931 whole entry, looked up): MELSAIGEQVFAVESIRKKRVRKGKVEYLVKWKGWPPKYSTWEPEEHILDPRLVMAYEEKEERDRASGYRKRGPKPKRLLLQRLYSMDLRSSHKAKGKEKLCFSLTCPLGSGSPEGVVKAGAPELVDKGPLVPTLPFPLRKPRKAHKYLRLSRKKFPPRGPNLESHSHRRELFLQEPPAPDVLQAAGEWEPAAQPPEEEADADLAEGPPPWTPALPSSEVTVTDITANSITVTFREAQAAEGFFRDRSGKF
CBX7 AlphaScr z-score: second read-out of CBX7 AlphaScr, no call of its own (marks repeat the call); z-score; measured here: z-score of CBX7 signal; some inactives read as strong as hits; reference of the scale not given here;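 same signal on another scale; lower means less binding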
* marks the source's active call; other numbers are inactive results; & = joins results of further samples. A portion of the library. The share of hits here may be higher or lower than overall.

The line under a structure holds: CBX7 AlphaScr, CBX7 AlphaScr z-score
Cc1nc2c(C(=O)NC3CCCCC3C)cnn2c(C)c1Cc1cccc(Br)c1 (configuration not stated)
    0.91, -4.1
COc1ccc(-c2nn(C)c3sc(C(=O)N4CCN(c5cccc(C)c5C)CC4)cc23)cc1OC
    0.91, -1.2
Cc1ccc(NC(=O)c2cc(-c3ccc(F)cc3)on2)cc1
    1.1, 0.1
Cn1c(C(=O)N2CCC(C(=O)NCCCN3CCCCCC3)CC2)cc2sccc21
    0.99, -0.15
COc1ccc(NC(=O)C2CCN(S(=O)(=O)c3ccccc3)CC2)c(OC)c1
    1.1, 0.93
CCOc1ccccc1CN1C(=O)CCC1(C)C(=O)NC1CCCCCCC1 (configuration not stated)
    1.2, 1.5
Cc1nc2cc(-c3cccc(F)c3)nn2c(C)c1CCC(=O)Nc1ccc(F)c(Cl)c1
    1, 0.11
O=C(NC1CCCC1)C1c2ccccc2C(=O)N1Cc1ccc(F)cc1Cl (configuration not stated)
    1, -0.029
Cn1c(CNc2cc(Cl)ccc2Cl)nc2ccccc21
    1, 0.015
Cc1cccc2c1NC(=O)C2(O)c1c[nH]c2ccccc12 (configuration not stated)
    1, 0.0087
COc1ccc(NS(=O)(=O)c2cc(-c3nn(C)c(=O)c4ccccc34)ccc2C)cc1
    1, -0.097
CCOC(=O)c1cnc2ccc(OCC)cc2c1Nc1ccc(Cl)cc1
    1.1, 1.7
O=C(O)c1cc2n(n1)C(C(F)(F)F)CC(c1ccc(Cl)cc1)N2 (configuration not stated)
    0.96, -0.84
Cc1ccc2c(c1)N(CC(=O)N1CCCC1)C(=O)CO2
    1.1, 2.4
CCOC(=O)N1CCC(NC(=O)CCc2c(C)nc3c(-c4ccc(F)cc4)c(C)nn3c2C)CC1
    1.1, 1.9
Cc1ccc(NC(=O)c2cc(C(C)C)on2)cc1C
    1, 0.19
CCN(CC)S(=O)(=O)c1ccc2c(c1)N(CC(=O)NC)C(=O)CO2
    1, 0.97
Cc1[nH]c2ccccc2c1CCNC(=O)NC(=O)c1c(F)cccc1F
    0.64, -0.36
CC1CCCC(C)N1C(=O)CN(C)S(=O)(=O)c1cccc2cccnc12 (configuration not stated)
    0.98, -0.23
CCCCN(CCCNC(=O)Cn1nc(-c2ccccc2)ccc1=O)c1ccccc1
    0.83, -4.3
COc1ccc(OC)c(C2=NOC(C(=O)N3CCC(Cc4ccccc4)CC3)C2)c1 (configuration not stated)
    0.7, -5.4
O=C(CCn1nc(-c2ccc(Cl)cc2)ccc1=O)NCCCN1CCOCC1
    1.1, 1.2
CC(=O)N1CCC(N(C(=O)Nc2ccc(Cl)cc2)C(C)C)CC1
    0.9, -0.1
CCC(=O)N1CCc2cc(S(=O)(=O)NCCC(=O)N3CCN(c4ccccc4)CC3)ccc21
    1, 0.56
Cc1cc(N2CCOCC2)nc2ccc(NC(=O)c3cccc(Cl)c3)cc12
    0.95, -1.2
Cc1ccc(Cn2c(C(=O)O)cc3sccc32)cc1
    1, 0.19
COc1ccc(-c2cc(C(=O)Nc3cc(C)ccc3C)c3ccccc3n2)cc1OC
    0.93, -1.6
Cc1cccc(N2CCN(CCNC(=O)C(C)N3C(=O)CC(C)(C)Sc4ccccc43)CC2)c1C (configuration not stated)
    0.99, -0.25
O=C(c1cc(-c2ccc(F)cc2)on1)N1CCc2ccccc2C1
    1.1, 0.14
COc1ccc(-n2nnc3c(=O)n(CC(=O)Nc4cc(C)ccc4C)cnc32)cc1
    0.91, -1.6
CCN(C(=O)Cn1ncc2c1-c1ccccc1OC2)c1cc(OC)ccc1OC
    0.78, -6.4
CC1(C)CC(=O)c2sc(NC(=O)c3ccccc3)nc2C1
    0.97, -0.92
CCn1c2c(c3cc(C4CCCCC4)ccc31)CCCCC2=O
    1.1&1.2, 0.67&5.7
O=C(O)c1ccc(NC(=O)c2ccc3c(c2)C(=O)N(c2ccccc2)C3=O)cc1
    1, 0.02
Cc1oc(-c2ccc(Cl)cc2)nc1CN1CCC(C(=O)NCc2ccc3c(c2)OCO3)CC1
    1, -0.043
Cc1cc(N2CCC(C)CC2)nc2ccc(NC(=O)CCC(=O)NCCCN3CCOCC3)cc12
    1.3, 2.2
CCCCN(C)CCNC(=O)c1cc2c(-c3cccc(OC)c3)nn(C)c2s1
    0.99, -0.3
Cc1ccc(C(=O)Nc2ccc(-c3nc4cc(Cl)ccc4o3)cc2)cc1
    0.97, -0.6
Cc1ccc(N2CC(=O)Nc3ccccc3S2(=O)=O)cc1
    0.94, -0.49
C=CCSc1nnc(-c2ccccc2NC(=O)CC)c(=O)[nH]1
    1, 0.67

Ordered by heavy-atom count (lowest first): part of the list above.
The line under a structure holds: CBX7 AlphaScr, CBX7 AlphaScr z-score
C=CCSc1nnc(-c2ccccc2NC(=O)CC)c(=O)[nH]1
    1, 0.67
COc1ccc(-n2nnc3c(=O)n(CC(=O)Nc4cc(C)ccc4C)cnc32)cc1
    0.91, -1.6
CCC(=O)N1CCc2cc(S(=O)(=O)NCCC(=O)N3CCN(c4ccccc4)CC3)ccc21
    1, 0.56
Cc1cc(N2CCC(C)CC2)nc2ccc(NC(=O)CCC(=O)NCCCN3CCOCC3)cc12
    1.3, 2.2

(next part)
The line under a structure holds: CBX7 AlphaScr, CBX7 AlphaScr z-score
COc1ccc2c(c1OC)C(=O)N(c1nc(-c3ccccc3)cs1)C2=O
    1.1, 0.25
Cc1ccc(NC(=O)c2cc(C3CC3)on2)cc1C
    1, 1.5
COc1ccc(Cl)cc1NC(=O)CCc1c(C)nc2cc(-c3cccc(F)c3)nn2c1C
    0.99, -0.22
Cc1cccnc1NC(=O)c1c(O)c2ccccc2[nH]c1=O
    0.6, -9
Cc1ccc(NC(=O)C2CCN(c3nnc(-n4cccc4)s3)CC2)c(Cl)c1
    1, 0.43
CCOC(=O)N1CCC(C(N)=O)CC1
    1, 1.6
CCc1ccc(-c2nc(CN3CCC(C(=O)N4CCN(c5ccccn5)CC4)CC3)c(C)o2)cc1
    0.8, -3.1
COc1ccc(OC)c(C2=NOC(C(=O)N3CCC(C)CC3)C2)c1 (configuration not stated)
    0.93, -1.3
Cc1cccc(N2CCN(C(=O)CC3(CC4=NS(=O)(=O)c5ccccc5N4)CCCC3)CC2)c1C
    0.72, -6.7
CNc1cc(-n2nc(-c3ccccc3)cc2-c2ccccc2)ncn1
    0.85, -1.6
Cc1cccc(CC(=O)NCCc2cc3cc(C)c(C)cc3[nH]c2=O)c1
    1, 0.23
Cc1nc2cc(-c3ccccc3)nn2c(C)c1CCC(=O)N1CCCC1
    1.1, 2.5
Cc1ccc(-c2nnc(OCC3CCCO3)c3ccccc23)cc1 (configuration not stated)
    1.1, 0.36
CCOC(=O)c1c(NC(=O)c2ccc(-c3ccccc3)cc2)sc(C)c1C
    1.1, 1.4
COc1ccccc1N1CCN(C(=O)Cn2nc(Cc3ccncc3)c3ccccc3c2=O)CC1
    1, -0.034
Cc1ccc(C)c(CN2C(=O)c3ccccc3S(=O)c3ccc(C(=O)NC4CCCC4)cc32)c1 (configuration not stated)
    0.88, -1.9
CCN1CCN(c2cc(=O)n(-c3ccccc3C)c(=O)[nH]2)CC1
    1, 0.048
CCN1CCN(C(=O)c2cn(-c3ccc(F)cc3F)c(=O)c3ccccc23)CC1
    1.1, 1.6
CCOc1ccc(-c2cc(CCCC(=O)Nc3cc(OC)ccc3OC)no2)cc1
    0.82, -0.78
CCOC(CNC(=O)c1ccc2c(c1)N(CC)C(=O)c1ccccc1S2=O)OCC (configuration not stated)
    1, 0.81
CCCCCC(=O)Nc1cccc(-c2nc3cc(C)cc(C)c3o2)c1
    1, 0.11
Cc1oc(-c2ccc(Cl)cc2)nc1CN1CCC(C(=O)NC2CCCC(C)C2C)CC1 (configuration not stated)
    1, 0.66
Cc1cccc(Cl)c1NC(=O)c1oc2ccc(S(=O)(=O)N3CCOCC3)cc2c1C
    0.86, -2
Cc1cc2cc(CCNC(=O)c3ccccc3C)c(=O)[nH]c2cc1C
    1, -0.2
CCOCCCNC(=O)CN1C(=O)CSc2cc(S(=O)(=O)N3CCCCCC3)ccc21
    1, 2
O=C1CCc2cc(S(=O)(=O)N3CCC(C(=O)NCCc4ccccc4)CC3)ccc2N1
    0.97, -0.87
Cc1ccc(-c2nc3nc(C)cc(C)n3c2Nc2ccc(Cl)cc2)cc1
    1, 1.2
COc1ccc(OC)c(-c2cc(C(=O)Nc3cc(Cl)ccc3OC)no2)c1
    0.94, -0.063
CCOc1ccccc1C(=O)Nc1ccc2nc3n(c(=O)c2c1)CCCCC3
    1, 0.04
Cc1ccc(C(C)C)c(OCC(=O)Nc2ccc(S(=O)(=O)Nc3ncccn3)cc2)c1
    1, 0.62
O=C(NCCc1ccccc1)c1nn2c(C(F)(F)F)cc(-c3cccs3)nc2c1Cl
    1.1, 2.8
O=c1[nH]c(CN2CCN(c3ccccc3)CC2)nc2ccccc12
    1, 0.093
Cc1ccccc1-n1nc2c(c1NC(=O)c1ccc(F)cc1)CS(=O)(=O)C2
    1.2, 1.6
COC(=O)c1ccc(C(=O)NCCc2c(C)[nH]c3c(C)ccc(F)c23)cc1
    0.79, -3.1
CC(NC(=O)Cc1ccc(F)cc1)C(c1cccs1)N1CCN(C)CC1 (configuration not stated)
    1.2, 1.6
Cc1c(Cl)cccc1NC(=O)CCCN1C(=O)c2cccnc2C1=O
    0.89, -1.9
COc1ccc(CN2C(=O)N(c3ccccc3)C(=O)C2CC(=O)Nc2ccccc2)cc1 (configuration not stated)
    1, 0.28
CC(NC(=O)c1cc(-c2ccc(Cl)c(Cl)c2)on1)c1ccccc1 (configuration not stated)
    1.1, 2
CCOc1cc2occ(Oc3ccccc3)c(=O)c2cc1CC
    1.1, 1.3
CC1CCN(c2c(NCc3ccc(C(=O)Nc4cccc(F)c4)cc3)c(=O)c2=O)CC1
    1.1, 2.8
O=C1C2C3c4ccccc4C(c4ccccc43)C2C(=O)N1c1ccc2c(c1)OCO2 (configuration not stated)
    0.9, -0.38
O=C(Nc1c(Cl)cccc1Cl)c1cc(-c2ccc3c(c2)OCO3)on1
    1, 0.46
CCN(Cc1ccccc1)C(=O)Cn1ncc2c1-c1ccccc1OC2
    0.85, -4.2
COc1cccc(CNC(=O)c2ccc3nc(-c4cccs4)c(-c4cccs4)nc3c2)c1
    0.86, -0.13
CCc1ccc(NC(=O)Nc2ccc3c(c2)N(C)C(=O)CS3)cc1
    1, 0.63
Cc1nc(Nc2ccc(F)c(Cl)c2)c2c3c(sc2n1)CCC3
    1.1, 3.6
COc1cccc(NC(CNS(=O)(=O)c2ccccc2)c2ccccc2)c1 (configuration not stated)
    0.51, -7
O=C(CCc1nc2ccccc2[nH]1)Nc1ccc(Cl)cc1
    1.1, 3.3
COc1cccc(N2CCN(C(=O)C3CCN(S(=O)(=O)c4cccnc4)CC3)CC2)c1
    1, 0.3
COc1ccccc1NC(=O)CSc1nc(-c2ccc(Cl)cc2)cn1-c1ccc(C)cc1
    0.66, -11
Cc1ccc(-c2noc(CNc3cccc(C)c3)n2)cc1
    0.88, -1.3
CCN1CCN(c2cc(C)c3cc(NC(=O)C(c4ccccc4)C4CCCC4)ccc3n2)CC1 (configuration not stated)
    0.98, -1.1
CC1CCN(S(=O)(=O)c2ccc3ncn(CC(=O)Nc4ccccn4)c(=O)c3c2)CC1
    0.98, -0.58
Cc1ccc2c(c1)c(=O)c(S(=O)(=O)c1ccccc1)cn2CC(=O)Nc1cccc(Cl)c1
    0.97, -0.41
COc1cccc(-c2nnc(SCC(=O)Nc3cc(C)on3)o2)c1
    0.94, -0.14
O=C(NCc1ccccc1)c1ccc2c(c1)NC(=O)C1CCCN21 (configuration not stated)
    0.91, -0.37
Cc1ccc(-n2nc3c(c2NC(=O)CCc2ccccc2)CSC3)cc1
    1, 1.4
Cc1ccc(Cl)cc1NC(=O)c1cc2n(n1)C(C(F)(F)F)CC(c1ccc3c(c1)OCO3)N2 (configuration not stated)
    1.1, 0.086
Cc1c(C(=O)Nc2ccc(F)c(F)c2)oc2ccc(S(=O)(=O)N3CCCC3)cc12
    1, 0.69
Cc1cccc(NC(=O)CCc2c(C)nc3ncnn3c2C)n1
    1.1, 1.6

The list goes on:
The line under a structure holds: CBX7 AlphaScr, CBX7 AlphaScr z-score
COc1ccc(-c2ccc(=O)n(CC(=O)Nc3cccc(Cl)c3C)n2)cc1
    1, 1
O=[N+]([O-])c1ncn(CNc2cc(Br)cc3cccnc23)n1
    0.89, -2.6
COc1ccc(CCC2CCN(c3nc(-c4ccc(Cl)cc4)cs3)CC2)cc1
    1.2, 2.6
COc1ccc(CCNC(=O)Cn2c(=O)c3sccc3n(Cc3ccccc3F)c2=O)cc1OC
    1, 0.23
O=C1CSc2ccc(C(=O)NCc3ccc(F)cc3)cc2N1
    1, 0.74
COc1ccc(-n2nc3c(c2NC(=O)c2ccc(S(=O)(=O)N4CCOCC4)cc2)CSC3)cc1
    0.91, -1.7
CCOc1cccc(C(=O)Nc2nnc(COc3ccc(C(C)(C)C)cc3)s2)c1
    1.1, 0.96
COc1ccc(-c2[nH]c(-c3ccc(F)cc3)nc2SCC(=O)NCC2CCCO2)cc1 (configuration not stated)
    0.97, -0.13
Cc1nc(Nc2ccc3c(c2)OCCO3)c2c(C)c(C)sc2n1
    0.76, -2.4
O=C(Nc1ccccc1-c1nc2ccccc2s1)c1ccc(Br)cc1
    1.1, 3.7
O=C1CN(C(=O)c2ccc(-c3ccccc3)cc2)C(c2ccc(F)cc2)c2cc(F)ccc2N1 (configuration not stated)
    0.71, -0.6
Cc1ccc(NC(=O)CC2Nc3cc(C)c(C)cc3NC2=O)cc1 (configuration not stated)
    1.1, 1
CCOc1ccc2nc(N3CCC(C(=O)NCCCSC4CCCCC4)CC3)sc2c1
    0.94, -0.72
